# TRPML1 inh: qHTS for Inhibitors of the Human Mucolipin Transient Receptor Potential 1 (TRPML1); Mucolipin-1 (Homo sapiens), Q9GZU1; activity change, negative = inhibition, % (test concentration not listed); TRPML1-inducible cells, Ca2+ dye fluorescence, FDSS; active compounds read low; inhibition of EC80 agonist-evoked calcium signal; hit rate 0.02% among 390,000; in the data active means activity change below about -50%; inconclusive means about -30% to -50%; inactive means above about -30%;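 note: stimulus is agonist 54-4 at its EC80 concentration; % is set by controls: 0 for no effect and ±100 for the full control effect; compound concentration not given in the record; the text of the record puts the active cut at -80%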
#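 TRPML1-DL cells, Tet-induced overnight (~16 h, 37 °C) at 1,500 cells/well, were loaded with Ca8 no-wash dye plus quencher for 45-90 min at room temperature. Compounds were pinned during FDSS kinetic reading; agonist 54-4 at EC80 (4 uM final) then added.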
# PINK1 modulator: A Quantitative High throughput Screen to Identify Chemical Modulators of PINK1 Expression | PINK1 immunofluorescence, high-content cytometry, 24 h | Potency, µM (titrated, usually from 76.6 µM), for the others: at the highest dose activation (PINK1 increase), actives largely listed as activators | hit rate 0.2% among 410,000; active = well fitted activation curve with a large enough effect; inconclusive = small, poorly fitted or top-dose-only effect; inactive = flat fitted curve, though single readings scatter; cell line not stated here;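 note: potency is the fitted concentration of half-maximal effect; % of control where 0% means no effect; nearly all actives have a fitted effect of over 65% in size; a mitochondrial uncoupler was the plate control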
#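 A stable cell line was treated with compounds at 5 concentrations for 24 hours, with CCCP as control. PINK1 levels and mitochondrial localization were measured by immunofluorescence with mitochondrial, cell and nuclear markers after fixation, read by laser-scanning cytometry.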
# Sfp inh: qHTS Assay for Inhibitors of Bacillus subtilis Sfp phosphopantetheinyl transferase (PPTase); Potency, µM, for the others: max response, negative = inhibition, actives largely listed as inhibitors; 4'-phosphopantetheinyl transferase ffp (Bacillus subtilis), Q9F4F7; Biochemical Sfp PPTase activity, qHTS; AID 1490, 2009; hit rate 3.5% among 310,000; active = well fitted inhibition curve with a large enough effect; inconclusive = small, poorly fitted or top-dose-only effect, or another doubt; inactive = no such curve, though single readings can be large or run the other way;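 note: the enzyme is Sfp with the accession as filed and its product quenches rhodamine fluorescence; potency is the fitted concentration of half-maximal effect; 0% = enzyme reaction without inhibitor and -100% = no enzyme wells; top concentration of the series not given in the record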
#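 Fluorescence-quenching assay with 15 nM Sfp, 5 uM rhodamine-CoA and 12.5 uM BHQ-2-labelled ybbR peptide in pH 7.6 Hepes/MgCl2 buffer. Enzyme was pre-incubated with compound for 15 min at room temperature. Rate was taken from the 30-min fluorescence change (525/598 nm).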
# TRPML1 ag: qHTS for Agonists of the Human Mucolipin Transient Receptor Potential 1 (TRPML1); Mucolipin-1 (Homo sapiens), Q9GZU1; TRPML1-expressing cells, Ca2+ dye fluorescence, FDSS; host cell line not named in the record; reference of the full effect not given here; activation, % (test concentration not listed); hit rate 0.12% among 410,000; in the data active = activation above about 50%; inconclusive = about 30% to 50%; inactive = below about 30%; note: 0% is about no effect; the text of the record puts the active cut at 80%
#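 Tetracycline-induced TRPML1-DL cells are seeded and incubated overnight before loading with a no-wash Ca2+ dye and quencher. Agonist activity is taken from the 110 s fluorescence read following compound pin-transfer on an FDSS, before EC80 54-4 challenge.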
# TRPV1 potentiator: HTS Assay for Compounds that Act as Potentiators of the Vanilloid Receptor 1. potentiation, % at 8.33 µM. Transient receptor potential cation channel subfamily V member 1 (Homo sapiens), Q8NER1. AID 540277, 2011. TRPV1-expressing cells, Fluo-8 calcium influx, capsaicin EC20 potentiation; host cell line not named in the record; control for the full effect not named in the record. hit rate 0.02% among 320,000; active means potentiation above 80%; inconclusive means 30% to 80%; inactive means below 30%; note: 0% is about no effect
# Target sequence (Q8NER1 whole entry, looked up): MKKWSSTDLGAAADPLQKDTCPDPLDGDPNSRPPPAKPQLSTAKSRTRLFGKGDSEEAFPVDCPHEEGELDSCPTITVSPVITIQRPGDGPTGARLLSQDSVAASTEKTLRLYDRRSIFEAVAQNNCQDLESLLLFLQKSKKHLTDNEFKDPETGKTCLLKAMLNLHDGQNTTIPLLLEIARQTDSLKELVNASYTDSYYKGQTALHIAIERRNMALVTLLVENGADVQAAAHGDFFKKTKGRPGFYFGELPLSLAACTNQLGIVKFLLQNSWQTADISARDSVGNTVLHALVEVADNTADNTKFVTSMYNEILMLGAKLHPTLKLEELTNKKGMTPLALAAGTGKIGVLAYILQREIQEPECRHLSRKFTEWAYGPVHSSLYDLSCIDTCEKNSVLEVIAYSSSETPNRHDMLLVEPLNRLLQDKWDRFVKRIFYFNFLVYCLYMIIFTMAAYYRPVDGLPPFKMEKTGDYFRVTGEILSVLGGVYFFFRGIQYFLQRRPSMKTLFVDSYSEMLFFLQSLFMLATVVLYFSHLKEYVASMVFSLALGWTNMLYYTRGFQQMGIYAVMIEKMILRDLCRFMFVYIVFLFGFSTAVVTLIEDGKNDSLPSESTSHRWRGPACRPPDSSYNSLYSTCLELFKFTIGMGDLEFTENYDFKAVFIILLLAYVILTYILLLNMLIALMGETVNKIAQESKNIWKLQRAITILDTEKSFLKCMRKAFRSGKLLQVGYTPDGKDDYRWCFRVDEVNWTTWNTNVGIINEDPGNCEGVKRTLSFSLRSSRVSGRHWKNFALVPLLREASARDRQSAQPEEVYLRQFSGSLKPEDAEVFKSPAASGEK
#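 TRPV1-expressing cells were cultured overnight at 35.5C and loaded with Fluo-8 calcium dye for 40 to 90 min at room temperature. After a 10 s baseline, compound was added and calcium influx was read kinetically for 3 min (ex 480/em 520 nm).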
# ClpP mod: qHTS Assay for Activators of ClpP | ATP-dependent Clp protease proteolytic subunit (Bacillus subtilis (strain 168)), P80244 | purified B. subtilis ClpP, FRET peptide cleavage, 20 min | Potency, µM (doses to about 57.5 µM), for the others: top-dose activity change, negative = active | hit rate 1.9% among 340,000 | AID 651965, 2013; active = well fitted falling curve with a large enough effect; inconclusive = small, poorly fitted or top-dose-only effect; inactive = no such curve, though single readings can be large or run the other way; note: potency is the fitted concentration of half-maximal effect; the source files actives as falling curves though it sought activators and does not explain the sign; nearly all actives have a fitted effect of over 65% in size; many hits overshoot -100%
# Target sequence (P80244 whole entry, looked up): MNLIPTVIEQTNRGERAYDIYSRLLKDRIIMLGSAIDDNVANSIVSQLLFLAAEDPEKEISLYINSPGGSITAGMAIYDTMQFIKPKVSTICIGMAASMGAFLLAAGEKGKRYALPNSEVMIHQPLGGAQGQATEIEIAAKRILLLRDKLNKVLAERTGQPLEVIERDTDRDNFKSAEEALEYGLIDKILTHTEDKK
#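 ClpP 10 microg/mL final, pH 8 Tris/KCl buffer with BSA, glycerol, Tween-20; compound pinned in; FRET-FV substrate; RT 20 min; Ex320/Em430; ΔFRET vs ADEP 5.8 microM, DMSO, no enzyme.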
# Menin MLL FP FL: qHTS Assay for Inhibitors Targeting the Menin-MLL Interaction in MLL Related Leukemias: Competition With Fluorescein Labeled MLL-derived Peptide | AID 1766, 2009 | FP activity change, % at 61.4 µM | Fluorescence polarization, fluorescein-MLL peptide displacement from menin | 290,000 tested, under 10 active; inconclusive = falling polarisation curve, or a change in total fluorescence; inactive = total fluorescence flat and polarisation flat or rising; no compound was filed as active; the % refers to the polarisation; negative = inhibition;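 note: % of control where 0% means no effect; inhibitors lower the polarisation; unlabelled MLL peptide was the positive control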
# Starred values were filed as active, the others as inactive; ? = inconclusive; · = not tested or not shown; & = joins results of further samples; [ ] = dose if it differs, or a comment.
cpd	compound	ClpP mod	Sfp inh	TRPV1 potentiator	TRPML1 ag	PINK1 modulator	Menin MLL FP FL	TRPML1 inh
1	Cc1ccc2oc(=O)c(/C=C(\O)CC(C)C)nc2c1	-8.7%	2%	-2	-0.9	-1.2%	5.2	-13
2	O=C(N/N=C/c1cc(Cl)cc(Cl)c1O)c1ccncc1	0.5%	15%	-6	18	2.6%	?	-8
3	Cc1[nH]c(=S)c(C#N)c(C)c1Cc1ccc(Cl)cc1Cl	-2.3%	18%	1	1.1	1.7%	0.6	-16
4	O=C(NCc1ccccn1)Nc1ccc(Cl)cc1Cl	0.9%	5%	-10	-0.4	-1.6%	-0.2	-8
5	Cc1cc(C)cc(NS(=O)(=O)c2cnc(Cl)c(Cl)c2)c1	0.6%	-2%	-14	3.5	7.3%	0.6	-5
6	CC(C)(C)c1ccc(/C=C2\SC(=O)N=C2N)cc1	·	19%	-19	0.0	0.3%	-0.2	20
7	CCOc1ccc(N(CC(=O)NCCSCc2ccccc2)S(=O)(=O)c2ccccc2)cc1	-1.4%	7%	0	1.5	0.8%	·	33
8	CC1CCc2sc(C(=O)OCC(=O)NCc3ccc(F)cc3)cc2C1 (configuration not stated)	-3.0%	-3%	-9	3.0	6.3%	0.7	-8
9	COc1ccc(-c2sc3cc4c(cc3c2C#CC2(O)CCCCC2)OCO4)cc1	3.9%	·	-3	-0.1	17%	·	35
10	CCOC(=S)NC(=O)c1sc2ccccc2c1Cl	6.6%	45µM*	-3	0.5	1.9%[38.3 µM]	3.1	15
11	Cc1ccc(-c2n[nH]c(=S)n2/N=C/c2ccncc2)cc1	·	-18%	22	1.6	-1.5%	-0.5	-7
12	O=C(CCC(=O)N1CCCCCC1)Nc1ccc([N+](=O)[O-])cc1	0.2%	2%	-2	0.9	-0.5%	·	24
13	OC1C(O)C(O)C(O)C(O)C1O (configuration not stated)	-0.4%&-1.0%&1.3%	11%	4&-6&-9	0.3&-0.6&0.2	1.2%&0.2%&0.9%	3.1	-4&-8&0
14	CC(C)C(c1nnnn1C(C)(C)C)N1CCN(Cc2cccnc2)CC1 (configuration not stated)	-2.5%	?	19	0.2	0.7%	6.2	15
15	Nc1ccc(C(=O)Nc2ccc(OC(F)(F)C(F)F)c(NC(=O)c3ccc(N)cc3)c2)cc1	16µM*	5%	8	-1.4	1.8%	2.9	17

# New compounds follow.
cpd	compound	ClpP mod	Sfp inh	TRPV1 potentiator	TRPML1 ag	PINK1 modulator	Menin MLL FP FL	TRPML1 inh
16	COC(C(=O)Nc1ccnn1C1CCN(Cc2cccc(C)n2)CC1)c1ccccc1 (configuration not stated)	1.0%	-2%	8	0.3	1.0%	6.5	-9
17	Cc1ccc(C(=O)NC(Cc2c[nH]c3ccccc23)C(=O)O)cc1 (configuration not stated)	-1.7%	3%	12	0.0	2.2%	-0.7	-17
18	O=C(CN1C(=O)COc2ccc(S(=O)(=O)N3CCOCC3)cc21)NCc1ccc(F)cc1	0.7%	·	·	4.1	1.0%	·	7
19	O=C(CN(Cc1ccco1)C(=O)c1ccccc1F)Nc1ccccc1C(F)(F)F	-1.8%	·	-2	0.4	-0.5%	·	16
20	Cc1ccc(-c2noc(C3CCCN(C(=O)c4ccccc4Br)C3)n2)o1 (configuration not stated)	·	-20%	3	2.1	1.7%	14	1
21	CCOc1cccc(C(=O)Nc2cnn(Cc3ccccc3)c2)c1	?	-4%	·	0.3	1.0%	-0.7	1
22	CC(=O)C1=C(C)NC(SCc2ccc(C#N)cc2)=C(C#N)C1c1ccco1 (configuration not stated)	-1.0%	?	-3	-0.8	0.9%	·	7
23	CCN(c1ccc(Cl)cc1)S(=O)(=O)c1nnc(NC(=O)C(C)C)s1	-0.1%	7%	1	1.1&0.9	14%&0.8%	6.3	-5&8
24	C[C@H](NC(=O)c1ccco1)C(=O)NC1CCCCCC1	-1.3%	·	11	0.1	-1.8%	·	24
25	CC(C)(C)C1CCC(=NNC(=O)c2cc3c(s2)CCCC3)CC1 (configuration not stated)	-1.8%	4%	-16	-0.2	5.1%	5.9	-12
26	CSc1ccc(C(=O)C2CCCN(S(=O)(=O)N(C)C)C2)cc1 (configuration not stated)	-1.0%	-3%	-10	-1.0	-1.3%	-0.8	7
27	CN1CCCN(C(=O)CNC(=O)c2ccccc2F)CC1	1.3%	·	·	1.7	2.5%	·	5
28	Cc1ccc(S(=O)(=O)N2CC(O)CC2C(=O)NCc2ccc3c(c2)OCO3)cc1 (configuration not stated)	-3.7%	25%	?	2.4	-0.5%	-4.7	20
29	CCOc1ccccc1-c1cnc(NC)cn1	4.7%	·	·	-0.5	3.3%	·	·
30	CCOC(=O)c1cc(-c2ccc(F)cc2)n(CCC(=O)Nc2cc(OC)cc(OC)c2)c1C	-4.9%	·	·	4.2	3.5%	·	-1

# More structures:
cpd	compound	ClpP mod	Sfp inh	TRPV1 potentiator	TRPML1 ag	PINK1 modulator	Menin MLL FP FL	TRPML1 inh
31	Cc1cccc(C(=O)O/N=C/c2ccc(Br)cc2)c1	·	-17%	-3	2.5	0.3%	-11	16
32	CC(=O)c1ccc(NC(=S)NC(NC(=O)c2ccco2)C(Cl)(Cl)Cl)cc1 (configuration not stated)	3.8%	-9%	0	-0.4	?	2.5	-8
33	CN(CCc1ccccc1)C(=O)c1cccc(NC(=O)Cc2cccc(NC(=O)C3CCCN(C(=O)C4CCCCC4)C3)c2)c1 (configuration not stated)	0.0%	·	·	3.7	0.8%	·	-2
34	CCc1ccc(CNC(=O)c2ccc(-c3nc(CSc4ccc(C)cc4)c(C)o3)cc2)cc1	-4.6%	·	·	1.0	3.2%	·	-5
35	COc1ccc(NC2C=CS(=O)(=O)C2)c(OC)c1 (configuration not stated)	-3.6%	79µM*	-10	-0.3	·	-10	-8
36	C=C(C)CSc1nc2sc3c(c2c(=O)n1-c1ccccc1)CCN(C)C3	4.2%	-4%	0	-0.2	2.3%	15	3
37	Cc1cc([N+](=O)[O-])ccc1NC(=O)CCC(=O)N1CCCCC1	-0.9%	2%	1	-0.9	1.4%	2.6	12
38	Cn1nc(-c2ccc(Cl)cc2)cc1NC(=O)CSCC(=O)O	-1.1%	10%	15	0.0	-0.5%	5.1	-5
39	COc1ccc(Cc2nnc(NC(=O)c3cc(OC)c(OC)c(OC)c3)s2)cc1	-6.2%	9%	?	1.4	5.3%	-0.8	3
40	S=C(Nc1ccc(N2CCOCC2)cc1)Nc1ccc2nc(-c3ccco3)c(-c3ccco3)nc2c1	-1.5%	-30%	-4	6.9	2.5%	?	-16
41	Cc1ccc(CNC(=O)c2c(C)oc3nc(C)nc(N4CCOCC4)c23)cc1	-1.6%	·	·	-0.2	-10%	·	19
42	COc1ccc(NC(=O)CSc2nc3ccccc3nc2N2CCC(C)CC2)cc1	-30%	·	·	0.3	-0.7%	·	12
43	C=CCn1c(=N)n(CC(=O)c2ccc(Cl)cc2)c2ccccc21	-5.8%	-9%	-2	0.8	6.4%	1.9	-8
44	Cc1ccccc1C(=O)Nc1nc(-c2nnn(-c3ccc(C(C)C)cc3)c2C)ns1	-21%	·	·	1.3	5.5%	·	3
45	COc1ccc(NC(=O)COc2ccc(S(=O)(=O)NC3CCCCC3)cc2)cc1OC	0.2%	·	·	-0.1	0.1%	·	-25

# (continued)
cpd	compound	ClpP mod	Sfp inh	TRPV1 potentiator	TRPML1 ag	PINK1 modulator	Menin MLL FP FL	TRPML1 inh
46	CCCCn1c(=N)n(CC(=O)O)c2ccccc21	·	9%	6	0.7	-1.3%	2.3	-1
47	CCOC(=O)Nc1ccc2c(CN3CCN(S(=O)(=O)c4ccccc4F)CC3)cc(=O)oc2c1	?	·	1	0.2	3.1%	·	7
48	CCN(CC)S(=O)(=O)c1ccc(C(=O)NCC(c2ccc(OC)cc2)N2CCOCC2)cc1 (configuration not stated)	-3.1%	1%	-4	1.6	-1.4%	0.8	21
49	CC(OC(=O)c1cc(=O)[nH]c2ccccc12)C(=O)Nc1ccccc1F (configuration not stated)	-3.5%	·	-31	-0.7	-1.3%	·	3
50	Cc1ccc(C(=O)OCC(=O)NC(C)C2CC3CCC2C3)cc1N (configuration not stated)	-9.6%	·	·	4.8	3.7%	·	4
51	Cc1c(C(=O)Nc2ccc3c(c2)OCO3)sc2nc(-c3ccccc3)cn12	105%	-6%	-50	3.0	13%[38.3 µM]	-1.0	78
52	Cc1ccc(CNC(=O)CN2C(=O)C3(SCC(=O)N3c3cc(C)cc(C)c3)c3ccccc32)cc1 (configuration not stated)	1.0%	·	·	2.3	2.5%	·	-3
53	COCCN1C(=O)CS/C1=C(/C#N)C(=O)NCc1ccco1	-0.9%	-15%	7	0.9	0.7%	?	-6
54	CCOCC(=O)Nc1ccc(S(=O)(=O)Nc2ncccn2)cc1	-1.3%	21%	8	0.3	-0.9%	-1.2	2
55	O=C(NCCCc1ccccc1)C(=O)NCC1OCCN1S(=O)(=O)c1cc(F)ccc1F (configuration not stated)	-0.3%	·	·	-0.4	1.8%	·	56
56	COc1ccc(NC(=O)CNCc2ccc(Cl)cc2)cc1S(=O)(=O)N1CCOCC1	-0.1%	·	·	-0.5	0.6%	·	6
57	CCCCCn1ccc(=N)cc1	-1.4%	11%	22	0.0	0.3%	7.7	10
58	CCC(C(=O)NCCc1ccco1)n1nc(C)c2c(C)n(-c3ccccc3)nc2c1=O (configuration not stated)	-0.1%	12%	-2	1.6	-0.3%	·	?
59	CCCCn1nnnc1NCc1ccc(N(CC)CC)cc1	-0.3%	5%	-8	1.3	6.5%[38.3 µM]	4.9	-20
60	COc1cc(/C=C(\NC(C)=O)C(=O)O)cc(OC)c1OC	-1.4%	6%	12	1.1	2.2%	-1.0	3
61	O=C(COc1ccc([N+](=O)[O-])cc1)NNC(=O)Nc1cccc(F)c1	1.5%	15%	4	0.0	0.3%	-4.3	-3
